# Compound activity from PubChem BioAssay.
# HSV augment: increases HSV replication in cells. HSV replication augmentation in cells, fold increase. maximum fold increase. hit rate 0.005% among 220,000. AID 1956;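 active = peak rise of 1.5-fold or more in the series; inconclusive = self-fluorescent or not available for retest; tested in PC3 cells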;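 also: first round at 10 µM; read as green reporter fluorescence; hits show the peak of a series up to 25 µM; 1 = signal of infected wells without compound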
# RGS16-Gao: RGS16-Galphao interaction regulator (human); bead-based flow cytometry RGS16-Galphao binding, fluorescence; actives lie on both sides; AID 1441; hit rate 0.38% among 220,000; O15492+P09471; binding response (% of control), % at 10 µM;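 active = below 25% or above 175%, edge rows of some plates excepted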;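 also: Galphao activated by GDP with aluminum fluoride before binding; 100% = wells without compound and 0% = beads without RGS; some results beyond the cut were filed as inactive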
# Target sequence (O15492 whole entry, looked up): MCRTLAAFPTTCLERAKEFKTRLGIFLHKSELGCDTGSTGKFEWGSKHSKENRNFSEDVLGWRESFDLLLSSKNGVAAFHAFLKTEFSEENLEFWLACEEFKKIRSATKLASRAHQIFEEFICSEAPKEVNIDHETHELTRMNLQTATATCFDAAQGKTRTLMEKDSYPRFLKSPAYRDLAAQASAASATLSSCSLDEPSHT
# Target sequence (P09471 whole entry, looked up): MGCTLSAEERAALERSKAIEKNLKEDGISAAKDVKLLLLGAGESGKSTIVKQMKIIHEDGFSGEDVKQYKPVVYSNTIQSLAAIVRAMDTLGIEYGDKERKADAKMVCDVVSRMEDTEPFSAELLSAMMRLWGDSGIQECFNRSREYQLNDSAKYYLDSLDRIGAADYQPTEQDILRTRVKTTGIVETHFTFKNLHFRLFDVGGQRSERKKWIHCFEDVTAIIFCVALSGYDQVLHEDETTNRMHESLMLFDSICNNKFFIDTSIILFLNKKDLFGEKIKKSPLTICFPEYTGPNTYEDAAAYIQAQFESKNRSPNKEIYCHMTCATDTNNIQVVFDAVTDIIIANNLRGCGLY
# GALR2 ag: GALR2 (human) receptor agonism | O43603 | GALR2-expressing cells, agonist activation read-out | activation, %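 (tested at 5 µM)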 | hit rate 0.48% among 140,000 | AID 803;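 active = above mean plus 3 SD of all compounds, about 5% in these data, not always enough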;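 also: 0% = vehicle buffer wells and 100% = reference agonist at full effect; tested in CHO reporter cells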
# Target sequence (O43603 whole entry, looked up): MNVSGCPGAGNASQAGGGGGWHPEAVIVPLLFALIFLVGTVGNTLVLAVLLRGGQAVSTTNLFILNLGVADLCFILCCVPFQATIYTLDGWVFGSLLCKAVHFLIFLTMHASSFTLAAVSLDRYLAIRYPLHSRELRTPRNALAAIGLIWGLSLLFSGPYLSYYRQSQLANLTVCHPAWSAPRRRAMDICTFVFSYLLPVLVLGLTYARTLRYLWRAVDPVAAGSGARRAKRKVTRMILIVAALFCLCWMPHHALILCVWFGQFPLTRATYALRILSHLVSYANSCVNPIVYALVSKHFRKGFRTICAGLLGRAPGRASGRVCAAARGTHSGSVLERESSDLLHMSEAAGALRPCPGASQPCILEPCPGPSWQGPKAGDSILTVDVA
# PKD1 inh: inhibitors of human PKD1 kinase; hit rate 0.056% among 200,000; AID 797; Q15139; PKD1 kinase fluorescence polarization assay; inhibition, %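 (about 10 µM by stock and volumes)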;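 active = inhibition of 50% or more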;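 also: controls were vehicle for no effect and a reference inhibitor for full effect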
# INS promoter inh: TRM-6 insulin promoter activity inhibition | hit rate 0.9% among 130,000 | TRM-6 cells (human fetal islet line), insulin promoter-eGFP reporter, imaging; reporter expression induced with tamoxifen | inhibition, % at 2 µM;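 active = inhibition above the mean plus 3 SD, with well images judged a real hit on visual review, cut at about 60% in these data, passing the limit was not always enough; inconclusive = inhibition over the cutoff but images rejected on review; inactive = inhibition not above the cutoff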
# INS promoter inh cell count: also measured in INS promoter inh; calls as there; normalized cell count, %; measured here: cell count, toxicity; reference of the scale not given here;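 cells exposed to compound for 48 h; stained nuclei by imaging scaled within each plate; lower means fewer cells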
# HSV augment primary fold: also measured in HSV augment; calls as there; fold increase; compound at 10 µM; measured here: primary screen fold increase 10 uM; tested in PC3 cells;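 GFP signal in the first replicate; 1 = infected wells without compound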
# Numbers without * were called inactive; i = inactive; ? = inconclusive; . = not tested or not shown.
SMILES,HSV augment,HSV augment primary fold,RGS16-Gao,GALR2 ag,PKD1 inh,INS promoter inh,INS promoter inh cell count
CC1=CC(C)(C)Nc2ccc(OC(=O)C(Cc3ccccc3)N3C(=O)C4CCCCC4C3=O)cc21 (stereo not given),?,.,107,-1.6,-3,-45,120
Cc1cc(C)c2c(N=NN3CCCCC3)[nH]nc2n1,i,0.92,98,-0.9,-1,-18,82
Nc1nc(NCCOCCO)nc(NCC2CCCO2)c1[N+](=O)[O-] (stereo not given),i,0.96,88,.,.,.,.
Cc1ccc(C(=O)C(C)N2C(=O)NC(C)(c3ccccc3)C2=O)cc1 (stereo not given),i,0.99,118,.,-1,-64,110
CCCc1nc2c(=O)n(C)c(=O)[nH]c2n1C,.,.,100,-3.0,-3,.,.
N#Cc1cc(C(=O)c2ccccc2O)cn(-c2ccc(Cl)cc2)c1=O,.,.,109,.,-2,.,.
COc1ccccc1NC(=O)N1CCN(c2cccc(C(F)(F)F)c2)CC1,i,0.95,93,-1.3,3,-110,109
O=C(CCn1c(=O)[nH]c2ccccc2c1=O)Nc1ccccc1,i,0.88,99,3.3,-1,.,.
COc1ccc(CCNC(=O)C(=O)NCc2ccc(C(C)C)cc2)cc1OC,i,0.99,100,-2.7,-2,6,144
Cc1nc(SCC(=O)N2CCCc3ccccc32)c2oc3ccccc3c2n1,i,0.87,114,-1.4,-13,.,.
Cc1onc(-c2c(F)cccc2Cl)c1C(=O)Nc1ccccc1N1CCOCC1,i,1,100,.,.,.,.
O=C(Nc1cc(Cl)cc(Cl)c1)c1ccc(Cn2c(=O)[nH]c3ccsc3c2=O)cc1,i,0.96,97,0.7,-4,.,.
COc1ccc(CNc2ncnc3c2[nH]c2ccccc23)cc1,i,0.93,106,.,.,.,.
Cc1ccc(/C=C/C(=O)O)cc1S(=O)(=O)N1CCC(Cc2ccccc2)CC1,i,0.92,100,.,.,.,.
CCOC(=O)c1c(C)[nH]c(C(=O)COC(=O)COc2ccccc2C)c1C,i,0.9,55,-0.9,-6,.,.
Cc1ccc(C(=O)N/C(=C/c2ccc(Cl)cc2)C(=O)NCC2CCCO2)cc1 (stereo not given),i,1,99,0.4,-7,-38,111
COC(=O)CCC(=O)OC1(C)C(=O)C=C2C=C(C3CC3)N(c3ccccc3)C=C2C1=O (stereo not given),i,0.87,99,.,.,.,.
CC(c1ccccc1)c1nnc(N)s1 (stereo not given),i,0.99,119,.,-4,-20,69
COCCn1c(COc2cccc(OC)c2)nnc1SCC(=O)N1CCOCC1,i,0.84,110,-1.3,-10,5,124
Clc1ccccc1-c1nnc2sc(-c3ccc(Br)o3)nn12,i,0.9,106,0.1,-4,.,.
CC(=O)N(CCN(C(C)=O)c1ccccc1)c1ccccc1,i,0.85,136,0.7,-6,0,58
COc1ccc(/C=C/C(=O)Oc2cc(C)[nH]c(=O)c2[N+](=O)[O-])cc1OC,i,0.97,107,.,-1,-40,122
O=C(CN(Cc1ccccc1F)C(=O)Cn1nnc(-c2cccs2)n1)NCC1CCCO1 (stereo not given),i,0.76,97,-3.3,-1,-17,91
c1csc(-c2nc(-c3ccc(-c4ccon4)s3)no2)c1,i,0.99,101,.,.,.,.
Cc1cccc(-c2nc(CS(=O)CC(=O)NC3CCCC3)c(C)o2)c1 (stereo not given),i,1.1,99,-3.1,-6,.,.
# Further entries follow:
SMILES,HSV augment,HSV augment primary fold,RGS16-Gao,GALR2 ag,PKD1 inh,INS promoter inh,INS promoter inh cell count
COCn1c(COc2ccc3ccccc3c2)nc2ccccc21,i,0.88,109,-1.7,1,62,100
O=C(O)c1cccc(Cn2c(Cl)c(/C=N/NC(=O)c3cccc(O)c3)sc2=O)c1,i,1.2,103,.,.,.,.
CCCCNC(=O)COC(=O)c1cc(C)oc1C,i,0.91,101,.,-3,.,.
CS(=O)(=O)N(CC(=O)Nc1cc(Cl)ccc1Cl)c1ccccc1Cl,i,1,105,-1.0,-1,-46,68
O=c1cc(-c2ccccc2)nc(N2CCCCC2)[nH]1,i,0.91,104,-0.1,-10,.,.
O=C(COc1ccc([N+](=O)[O-])cc1)NN=C1CCCC1,i,0.93,99,-2.0,-3,20,66
O=C(Cn1cnc2c(cnn2-c2ccccc2)c1=O)NCCc1ccccc1,i,1,101,-2.1,7,10,139
N#Cc1cc(C(=O)c2ccccc2OCC(=O)Nc2ccccc2)cn(C2CCCCC2)c1=O,i,0.9,104,-1.8,-5,.,.
Cc1ccc(-c2nnn(CC(=O)Nc3ccccc3-c3ccccc3)n2)c(-n2cnnn2)c1,i,1,117,-1.6,5,.,.
O=C(Nc1ccccn1)c1ccc2ccccc2n1,i,1,87,-3.8,0,.,.
CC(C)C(c1nnnn1C1CCCCC1)N1CCN(c2ncccn2)CC1 (stereo not given),i,1,108,5.8,-13,3,96
Cc1ccc(S(=O)(=O)NNC(=O)C2Cc3c(ccc4ccccc34)O2)cc1 (stereo not given),i,1,95,-0.2,3,4,113
CCCCc1c(C)[nH]c(C(=O)OCC)c1C,i,0.94,100,.,7,.,.
COc1cccc(C(=O)Nc2cccc(SC)c2)c1,i,0.89,97,-0.9,-3,-6,99
CCC(C)c1ccc(NC(=O)C2CCN(c3ccc(C(F)(F)F)cn3)CC2)cc1 (stereo not given),i,0.97,107,-0.6,-13,-36,93
CCN(CC)C(=O)CSc1ncnc2c1cnn2Cc1ccccc1,i,0.96,106,-1.1,11,.,.
CCc1ccc(/C([O-])=C(/C(=S)NCCN2CCOCC2)[n+]2ccccc2)cc1,i,0.99,106,.,-3,.,.
O=C(NC1CCCC1)C(c1ccccc1)N(C(=O)c1ccno1)c1ccccc1 (stereo not given),i,1.1,107,-1.7,-19,60,101
O=C(N/N=C/c1c[nH]c2ccc(Br)cc12)c1ccn(Cc2ccc(Cl)cc2)n1,.,.,96,-2.6,-5,.,.
O=C(COC(=O)Cc1ccccc1F)Nc1ccc(SC(F)F)cc1,i,0.98,100,-1.2,9,33,85
Clc1cccc(CN2CCC(Cc3ccccc3)CC2)c1,i,0.98,116,-1.7,-2,.,.
O=c1c(Br)c(N2CCCC2)cnn1-c1ccccc1,i,0.97,99,-0.8,1,11,193
CCC12CN(S(=O)(=O)c3ccc(C)cc3)CC(CC)(CN(S(=O)(=O)c3ccc(C)cc3)C1)C2=O,i,0.96,101,-1.9,-5,-21,97
O=C1C(NS(=O)(=O)c2cccs2)=C(N2CCN(c3cccc(Cl)c3)CC2)C(=O)c2ccccc21,i,0.9,97,-3.3,-9,-56,156
COC(=O)c1ccccc1NC(=O)COC(=O)c1ccco1,i,1,98,-1.5,-2,30,54
# Later entries.
SMILES,HSV augment,HSV augment primary fold,RGS16-Gao,GALR2 ag,PKD1 inh,INS promoter inh,INS promoter inh cell count
O=C(Nc1ccccc1)C1=C[C@H](c2ccccc2)C[C@H](OCc2ccc(CO)cc2)O1,.,.,82,.,6,.,.
Cc1ccc(/C=N/NC(=O)CSc2nc3nc(C)cc(C)n3n2)cc1,i,0.98,101,-1.9,-7,.,.
COc1ccc(C2=Nc3cc(C)ccc3OC2)cc1,i,0.93,100,-2.2,-8,0,89
CCOc1ccc(OCCOCCOc2ccccc2Cl)cc1,i,1,129,-2.6,-1,39,76
CC(=O)Nc1ccc(S(=O)(=O)N2CCN(C3CCCCCCC3)CC2)cc1,i,1.1,93,-3.2,-3,.,.
Cc1ccc(C(=O)Nc2cc([N+](=O)[O-])ccc2F)s1,i,0.84,51,-1.3,13,17,86
O=C(COC(=O)c1ccccc1C(=O)c1ccccc1)NCCc1ccccc1,i,1,106,7.0*,9,.,.
CC1Cc2nc(SCC(=O)NCCc3ccccc3)n(C)c(=O)c2S1 (stereo not given),i,1,101,-1.6,-13,.,.
O=C(Nc1ccccc1)C1CC2CCCC(C1)C2=O (stereo not given),i,0.89,121,-2.3,-12,.,.
CN1CCN(CC(O)COc2ccc(Cl)cc2)CC1 (stereo not given),i,0.97,102,-0.8,5,-3,168
NNC(=O)c1n[nH]c(=O)c2ccccc12,i,0.83,98,.,.,.,.
O=C(Nc1ccc(OCC(F)(F)C(F)F)c(C(F)(F)F)c1)c1ccccc1,i,0.83,.,-1.2,-7,19,122
CCCCc1ccc(/C=C(\C#N)C(N)=S)s1,i,1.1,105,.,-5,.,.
Cc1cccc2c(N=Nc3ccc(S(=O)(=O)Nc4ccc(Cl)cc4)cc3[N+](=O)[O-])c(O)[nH]c12,i,0.89,103,.,-1,47,81
O=C(c1ccccn1)N(Cc1cc2ccccc2[nH]c1=O)C1CCCCC1,i,0.81,-177,0.0,0,.,.
CCCNC(=O)Cn1sc2nc(C)cc(C)c2c1=O,i,0.96,16*,.,.,.,.
O=C(NCC1CCCO1)c1onc(CSc2ccccc2)c1C(=O)O (stereo not given),i,0.79,102,-2.4,-8,-14,152
COC(=O)c1cc(NC(C)=O)ccc1N1CCOCC1,i,0.98,107,.,-3,.,.
CN(C)c1cc[n+](CC(=O)N2CCCc3ccccc32)cc1,i,1,100,.,-8,-40,91
CC(C)(C)SCCNC(=O)CN(c1ccc(F)c(Cl)c1)S(C)(=O)=O,i,1.3,99,-1.1,8,-13,89
O=C(NC1CCN(C(=O)Nc2ccccc2Cl)CC1)c1ccccc1,i,0.89,83,.,-4,7,140
N#C/C(=N\Nc1ccccc1)C(N)=S,i,0.99,97,.,.,.,.
Cc1noc(C)c1COc1ccc(CC(=O)NC2CCCCCC2)cc1,i,0.92,99,.,-4,.,.
O=C(CCn1cccc1)Nc1cccc(F)c1,i,1.1,113,-4.0,-2,-18,58
CC(=O)c1cc(-c2ccccc2)n(CC(=O)NC(C)(C)C)c1C,.,.,111,.,-6,-100,77

# 5 entries from above, reformatted:
# The line under a structure holds: HSV augment	HSV augment primary fold	RGS16-Gao	GALR2 ag	PKD1 inh	INS promoter inh	INS promoter inh cell count
> COc1ccc(C2=Nc3cc(C)ccc3OC2)cc1
→ i	0.93	100	-2.2	-8	0	89
> CCCNC(=O)Cn1sc2nc(C)cc(C)c2c1=O
→ i	0.96	16*	.	.	.	.
> O=C(Nc1ccccc1)C1=C[C@H](c2ccccc2)C[C@H](OCc2ccc(CO)cc2)O1
→ .	.	82	.	6	.	.
> CCCCc1ccc(/C=C(\C#N)C(N)=S)s1
→ i	1.1	105	.	-5	.	.
> O=C(NCC1CCCO1)c1onc(CSc2ccccc2)c1C(=O)O (stereo not given)
→ i	0.79	102	-2.4	-8	-14	152

# Next section:
SMILES,HSV augment,HSV augment primary fold,RGS16-Gao,GALR2 ag,PKD1 inh,INS promoter inh,INS promoter inh cell count
Cc1nnc(SCC(=O)NCc2ccccc2)[nH]c1=O,i,1.1,101,-1.9,9,-136,91
CC1(C)CC(=O)CC(=Nc2ccc3[nH]c(=O)[nH]c3c2)C1,i,1.1,96,-2.0,-7,.,.
COc1ccccc1Nc1cc(C(=O)N2CCc3ccccc3C2)c2ccccc2n1,i,0.97,104,.,-7,-8,111
COc1cccc(NC(=O)CNC(=O)c2ccc(OC)c(OC)c2)c1,i,0.88,103,.,-11,-5,82
CN(C)Cc1nc2c(c(=O)[nH]1)C(C)(C)Cc1ccccc1-2,i,0.95,100,-1.0,5,14,105
O=C(Nc1cc(C(F)(F)F)ccc1N1CCOCC1)c1c(F)c(F)c(F)c(F)c1F,.,.,97,-1.3,-7,-333,84
COc1cc(/C=C2\SC(=S)N(N3CCOCC3)C2=O)ccc1O,?,.,102,.,.,.,.
COc1c2ccc(C(=O)NCCCCc3ccccc3)cc2nn1C,i,0.93,102,-0.8,-2,.,.
CC(C)CC(=O)NC(=S)Nc1ccc(N2CCN(C(=O)c3cccs3)CC2)cc1,i,1,103,.,.,.,.
O=C(Cn1cc(SCc2ccc(F)cc2)c2ccccc21)N1CCOCC1,i,1.1,102,-0.1,4,.,.
CCOC(=O)C1=NOC2C3CC(C12)C1C(=O)N(CCc2ccc(OC)c(OC)c2)C(=O)C31 (stereo not given),i,0.94,91,.,.,.,.
O=C(c1sc2ccccc2c1Cl)N(Cc1ccccc1)C1CCS(=O)(=O)C1 (stereo not given),i,0.99,104,-0.5,-9,8,85
O=C(Cn1c(C(F)(F)F)nc2ccccc21)c1ccc(Cl)cc1,i,0.77,114,-2.9,-1,-11,76
CC(=O)NNc1ncnc2c1cnn2-c1ccc(C)c(C)c1,i,0.91,108,.,-12,17,151
O=C1c2ccccc2NC(c2ccc(O)cc2)N1Cc1ccco1 (stereo not given),i,0.95,101,-0.9,1,32,49
O=C(CSc1nnc2scc(-c3ccc(Cl)cc3)n12)NCc1ccco1,i,0.9,107,-0.7,0,37,134
CCOC(=O)COc1cccc2c(=O)n(CC(=O)NCCc3ccccc3)ccc12,i,0.95,106,-1.3,-9,12,127
